Compound activity (PubChem)
Polio RdRp inh = poliovirus RNA polymerase inhibition | hit rate 0.66% among 150,000 | P03300 | % elongation, % (compound at 16.7 µg/mL) | AID 588519 | poliovirus polymerase elongation, fluorescence polarization; stronger effect = lower value; in the data active = % elongation below about 90%; also: some results filed as inactive read as strong as hits
Target sequence (P03300 1749-2209 limits assumed): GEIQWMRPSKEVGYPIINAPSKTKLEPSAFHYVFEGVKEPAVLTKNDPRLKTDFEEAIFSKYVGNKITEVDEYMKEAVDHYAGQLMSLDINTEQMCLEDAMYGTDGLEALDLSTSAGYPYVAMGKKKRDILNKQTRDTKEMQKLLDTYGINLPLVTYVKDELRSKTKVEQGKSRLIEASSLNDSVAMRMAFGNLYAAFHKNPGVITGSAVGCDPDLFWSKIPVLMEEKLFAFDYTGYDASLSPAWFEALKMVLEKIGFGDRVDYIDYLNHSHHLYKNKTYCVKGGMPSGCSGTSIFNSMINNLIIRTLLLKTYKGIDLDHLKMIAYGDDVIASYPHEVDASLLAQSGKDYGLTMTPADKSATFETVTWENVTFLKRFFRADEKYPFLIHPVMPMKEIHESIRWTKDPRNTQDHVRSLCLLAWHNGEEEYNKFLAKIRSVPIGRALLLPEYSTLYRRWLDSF
Polio RdRp inh intensity = recorded beside Polio RdRp inh, whose call it bears; % elongation; measured here: total intensity read-out; formula for this scale not given here;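 total fluorescence in place of polarization; lower means less elongation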
* hit, by the source's call.

SMILES,Polio RdRp inh,Polio RdRp inh intensity
O=C(O)CCc1ccc(-c2ccc(Cl)cc2)n1-c1cccc(C(F)(F)F)c1,108,110
Cc1ccc(-n2c(SCC(=O)NCc3ccc(F)cc3)nc3c([nH]c4ccccc43)c2=O)cc1,103,109
Cc1nc(-c2ccc(Cl)cc2)sc1CCNC(=O)C(=O)Nc1ccccc1C#N,110,115
Cc1ccccc1CNC(=O)C1CCN(c2nn3cc(-c4ccc(F)cc4)nc3s2)CC1,105,102
O=C(NCCc1ccccc1Cl)C1CCN(c2nc3ccccc3nc2C(F)(F)F)CC1,99,105
COc1ccc(Cc2nc3ccccc3n2Cc2ccccc2F)cc1,105,105
COc1cc2ccccc2cc1C(=O)Nc1cccc(-c2nc3cc(C)c(C)cc3o2)c1C,102,102
COc1ccc(NC(=O)Cn2ncc3c(C)n(Cc4cccc(Cl)c4)c(C)c3c2=O)cc1,111,110
Cc1ccc(NC(=O)CSc2n[nH]c(-c3ccc(F)cc3)n2)cc1F,108,101
Cc1cc(C)cc(Nc2nnc(-n3nc(C)cc3C)c3ccccc23)c1,108,110
COc1ccc(NC(=O)c2cc3nc(-c4ccc(Cl)c(Cl)c4)cc(C(F)(F)F)n3n2)c(OC)c1,106,114
O=C(COc1ccccc1F)OCc1cc(=O)n2nc(C3CC3)sc2n1,107,112
CC(C)C1C(=O)Nc2ccc(S(=O)(=O)NCCc3ccc(Cl)cc3)cc21 (stereo unspecified),103,101
COCCCNC(=O)c1[nH]c2ccccc2c1Sc1ccc(C)cc1,110,114
CCc1ccc(NC(=O)CN2CCSc3ccc(S(=O)(=O)N4CCCC4)cc32)cc1,110,117
CCC(C)NC(=O)CSCc1nc(-c2ccc(C)cc2)oc1C (stereo unspecified),106,109
O=C(Nc1cccc(Cl)c1)c1cnc[nH]1,109,111
COc1cccc(NC(=O)C2CCCN2S(=O)(=O)c2ccc3c(c2)C(C)(C)C(=O)N3C)c1 (stereo unspecified),104,99
COC(=O)c1c(NC(=O)C2c3ccccc3Oc3ccccc32)sc2c1CCC(C(C)(C)C)C2 (stereo unspecified),106,106
CCNC(=O)c1c(C)oc2ncn(C)c(=O)c12,102,98

(further entries)
SMILES,Polio RdRp inh,Polio RdRp inh intensity
COC(=O)c1ccccc1NC(=O)Cn1nnc(-c2ccc(OC)cc2)n1,100,106
Cc1ccc(-n2nc(C)c3c(C)cc(=O)n(CC(=O)N4CCCc5ccccc54)c32)cc1,101,104
CCOc1ccc(C(=O)Nc2nnc(S(=O)(=O)Nc3ccccc3)s2)cc1,115,115
CCOC(=O)C1CCCCN1S(=O)(=O)c1csc(C(N)=O)c1 (stereo unspecified),98,98
CCOC(=O)c1c(C)oc2nc(C)nc(N3CCN(c4cccc(C(F)(F)F)c4)CC3)c12,106,107
CC1CCN(C(=O)c2cc(-c3cccc(Cl)c3)on2)CC1,102,106
CCC(=O)N(CCC(c1ccccc1)c1ccc2c(c1)OCO2)Cc1ccc(OC(C)C)cc1 (stereo unspecified),104,103
COc1cc(OC)c(NC(=O)c2csc3c2CCC(C)C3)cc1Cl (stereo unspecified),105,99
CCCC(=O)Nc1cc(C(=O)NCc2ccc(OC)cc2)ccc1S(=O)(=O)c1ccc(Cl)cc1,104,106
COc1cc(OC)c(OC)cc1CNc1sc2c(c1C(=O)Nc1ccccc1OC)CCC2,122,114
O=C(NCC(c1ccc(Cl)cc1)N1CCCCC1)c1ccc(F)cc1 (stereo unspecified),110,109
Cc1ccc(C)c(Cn2nc(C)n3c(cc4cc(C)ccc43)c2=O)c1,105,108
CCOc1ccc(NC(=O)CSc2nnc(NC(=O)Nc3ccccc3)s2)cc1,109,113
CC1=C(c2ccc(C)cc2)S(=O)(=O)N(Cc2ccc(C(=O)Nc3ccc(F)cc3C)cc2)C1=O,105,102
COc1ccc(N2CCN(S(=O)(=O)c3ccc(-c4ccno4)cc3OC)CC2)cc1,101,97
Cc1c(C(=O)NCc2ccccc2)sc2nc3n(c(=O)c12)CCC3,107,101
CCOC(=O)CSc1nc2ccccc2c(=O)n1CCc1ccc(OC)c(OC)c1,99,97
Cc1ccc2c(c1)cc(C(=O)Nc1ccccc1C)n2C,109,113
COc1ccc(-n2cc3c(c2-c2cccc(Br)c2)c(=O)n(C)c(=O)n3C)cc1OC,106,107
Cc1ccc(NC(=O)c2c(C(=O)Nc3ccccc3)sc3nc(C)cc(=O)n23)c(C)c1,105,104

Complete entries, looked up by structure. Screens in order: Polio RdRp inh, Polio RdRp inh intensity
CCOC(=O)C1CCCCN1S(=O)(=O)c1csc(C(N)=O)c1 (stereo unspecified) in the list: 98, 98
COC(=O)c1ccccc1NC(=O)Cn1nnc(-c2ccc(OC)cc2)n1 in the list: 100, 106
CC1=C(c2ccc(C)cc2)S(=O)(=O)N(Cc2ccc(C(=O)Nc3ccc(F)cc3C)cc2)C1=O in the list: 105, 102

Further entries.
SMILES,Polio RdRp inh,Polio RdRp inh intensity
COc1ccc([N+](=O)[O-])cc1NC(c1nnc(-c2ccccc2)o1)c1ccccc1F (stereo unspecified),104,112
CC(C)S(=O)(=O)c1oc(-c2ccc(F)cc2)nc1S(=O)(=O)c1ccc(F)cc1,110,102
CCCNC(=O)C1=CC(c2ccc3c(c2)OCO3)=NS(=O)(=O)N1C,106,107
Cc1noc(-c2ccccc2OCC(=O)Nc2cccc([N+](=O)[O-])c2)n1,114,111
O=C(NCc1ccc2c(c1)OCO2)c1ccc2c(c1)N(Cc1c(F)cccc1Cl)C(=O)c1ccccc1S2,112,115
COc1cccc(CNC(=O)C(CC(C)C)NS(=O)(=O)c2ccc3c(c2)oc(=O)n3C)c1 (stereo unspecified),103,100
O=C(CN1C(=O)CSc2ccc(S(=O)(=O)N3CCOCC3)cc21)NCCCN1CCCCC1,114,113
Fc1ccc(Nc2nc(-c3ccc(F)cc3)c3c(n2)-c2ccccc2OC3)cc1,118,119
COc1ccc(C(=O)NCc2nnc(SCC(=O)Nc3ccccc3)n2-c2ccc(F)cc2)cc1,100,103
CCCn1c(=O)c2sccc2n2c(CCCC(=O)NCc3ccccc3)nnc12,111,116
O=S(=O)(c1ccc(OC(F)(F)F)cc1)N1CCC(c2nnnn2-c2ccc(F)cc2)CC1,103,103
CCOC(=O)c1c(-c2ccccc2)oc2ccc(N(C(C)=O)S(=O)(=O)c3cc(C)ccc3C)cc12,103,102
Cc1ccc(-n2ncc(C(=O)Nc3c(Cl)cccc3Cl)c2C2CCNCC2)cc1,94,78
CCOc1ccc(CNCc2c(C(=O)O)n(Cc3ccc(OC)cc3)c3ccccc23)cc1,109,110
COc1ccc(S(=O)(=O)NCC(c2ccco2)S(=O)(=O)c2cccs2)cc1C (stereo unspecified),111,109
CC(C)(C)OC(=O)N1CCC(c2c(C(=O)NCc3ccccn3)cnn2-c2ccc(F)cc2)CC1,107,86
CCOC(=O)N1CCc2c(sc3c2c(=O)n(-c2ccc(Cl)cc2)c(=O)n3Cc2cccc(C)c2)C1,100,102
COc1ccc(OC)c(CNC(=O)c2cc3ccc4cccnc4c3[nH]2)c1,107,88
COC(=O)c1ccccc1NC(=O)Cn1c(=O)n(-c2ccc(C)cc2)c(=O)c2ccccc21,106,105
CCOc1ccc(NC(=O)CSc2nccn2Cc2ccco2)cc1,110,109

The closing 5 compounds of the part before lead into the next.
SMILES,Polio RdRp inh,Polio RdRp inh intensity
CC(C)(C)OC(=O)N1CCC(c2c(C(=O)NCc3ccccn3)cnn2-c2ccc(F)cc2)CC1,107,86
CCOC(=O)N1CCc2c(sc3c2c(=O)n(-c2ccc(Cl)cc2)c(=O)n3Cc2cccc(C)c2)C1,100,102
COc1ccc(OC)c(CNC(=O)c2cc3ccc4cccnc4c3[nH]2)c1,107,88
COC(=O)c1ccccc1NC(=O)Cn1c(=O)n(-c2ccc(C)cc2)c(=O)c2ccccc21,106,105
CCOc1ccc(NC(=O)CSc2nccn2Cc2ccco2)cc1,110,109
Cc1cccc(NC(=O)CN2C(=O)CCc3ccccc32)c1C,102,100
COc1ccc(CNC(=O)c2ccc(CSc3nc4ccncc4n3Cc3ccccc3F)cc2)cc1,108,110
Cc1ccc(C(C)C)c(OCC(=O)Nc2nc3c(s2)CCCC3)c1,107,108
CCOc1ccc(NC(=O)CSC2=Nc3ccccc3C3=NC(Cc4ccccc4)C(=O)N23)cc1 (stereo unspecified),100,101
Cc1ccc(CNC(=O)C(=O)NCC(c2ccco2)S(=O)(=O)c2cccs2)cc1 (stereo unspecified),110,111
CCN(CCCNC(=O)Cn1ncc2c([nH]c3ccccc32)c1=O)c1cccc(C)c1,112,116
COc1cccc(/C=C/c2nc(C#N)c(N3CCCCCC3)o2)c1,100,102
COc1ccc2c(CNCc3ccc(C)o3)c(C(=O)O)n(Cc3ccccc3C)c2c1,113,111
CCN1CCN(c2cc3c(cc2F)c(=O)c(S(=O)(=O)c2ccc(OC)cc2)cn3CC)CC1,100,100
CCOc1ccc(Cn2c(CNS(=O)(=O)c3ccc(CC)cc3)nc3cccnc32)cc1,107,110
Cc1nc(SCCOc2ccccc2F)[nH]c(=O)c1Cc1ccccc1,111,112
Cc1ccc(S(=O)(=O)c2cn(CC(=O)Nc3ccccc3)c3cc4c(cc3c2=O)OCO4)cc1,101,103
CCOc1ccccc1NC(=O)N1CCCn2nc(C)cc21,108,102
CCOc1ccc(CCNC(=O)c2ccc(-c3nc(CSc4ccc(C)cc4)c(C)o3)cc2)cc1,110,108
CCC(C)NC(=O)Cn1ccc2cc(S(=O)(=O)N3CCCCCC3)ccc21 (stereo unspecified),100,100
COc1ccccc1NC(=O)Cn1c(C)cc(C)c(C#N)c1=O,102,110
Cc1ccc(S(=O)(=O)CC(=O)Nc2nc3c(C)cc(C)cc3s2)cc1,109,113
COCc1oc2ccc(NS(=O)(=O)c3ccc(C)cc3)cc2c1C(=O)OC,107,112
CCOc1ccc(CNC(=O)c2ccc(NC(=O)c3nsc4ccccc34)cc2)cc1,109,114
CCC(C)NC(=O)CN1C(=O)c2cccnc2Oc2ccc(C)cc21 (stereo unspecified),100,108

(next part)
SMILES,Polio RdRp inh,Polio RdRp inh intensity
COc1ccc(C)cc1N(C)C(=O)c1c(C)oc2ncnc(N3CCOCC3)c12,108,111
CCOCCCn1c(=N)c(C(=O)NCC2CCCO2)cc2c(=O)n3cccc(C)c3nc21 (stereo unspecified),112,113
CCc1ccc(CNC(=O)CN2C(=O)CCn3nc(-c4cn(C)c5ccccc45)cc32)cc1,100,100
CC(=O)c1ccc(NC(=O)C2CCN(c3nnc(C)c4c(C)n(-c5ccccc5)nc34)CC2)cc1,98,105
COc1ccc(-n2c(=O)c3ccccc3n(Cc3cccc(C)c3)c2=O)cc1,109,107
CCOC(=O)c1[nH]c2c(c1Cc1ccccc1C)C(=O)CC(c1ccccc1)C2 (stereo unspecified),102,105
COc1ccc(NC(=O)Cn2c(=O)n(-c3cccc(C)c3)c(=O)c3c2c2cc(C)ccc2n3C)cc1Cl,100,105
Cc1cccc(NC(=O)c2cc(S(=O)(=O)N3CCCCCC3)cn2C)c1C,106,112
O=C(CCn1c(=O)c2cccn2c2cccnc21)N1CCN(c2ccc(F)cc2)CC1,113,100
CC(=O)N1CCc2cc(S(=O)(=O)NC(Cc3ccccc3)C(=O)NCc3ccccc3Cl)ccc21 (stereo unspecified),101,104
Cc1ccc(Nc2sc(C(=O)c3ccc(F)cc3)c(N)c2S(=O)(=O)c2ccc(C)cc2)cc1,108,104
Cc1cc(C)n2nc(SCC(=O)Nc3ccccc3)nc2n1,104,107
CCc1cc2c(cc3c(=O)n(CC(=O)N4CCCCC4)ncn32)s1,107,105
CCC(=O)N1c2ccccc2CC1C(=O)NCCc1ccc(OC)cc1OC (stereo unspecified),108,113
CCc1ccc(NC(=O)c2cc3c([nH]c2=O)CC(C)(C)CC3=O)cc1,103,109
COc1ccc(CNC(=O)C(C)Sc2nc(-c3ccccc3)cc(C(F)(F)F)n2)cc1 (stereo unspecified),101,98
CCOc1cc2sc(N3CCC(C(=O)Nc4ccccc4C(=O)OC)CC3)nc2cc1Br,117,115
COc1ccc(C2CC(=O)c3cc(-c4nc(-c5cccc([N+](=O)[O-])c5)cs4)c(=O)n(-c4ccccc4C)c3C2)cc1 (stereo unspecified),103,98
COc1ccc(C)cc1NC(=O)C1CCC(CNS(=O)(=O)c2ccc3c(c2)CCCC(=O)N3)CC1 (stereo unspecified),112,111
CCCn1c2ccccc2c2cnn(CC(=O)N(CCCOC(C)C)Cc3ccco3)c(=O)c21,103,104
CCN(CC)c1ccc(C2Nc3ccccc3-c3cc(C)nn32)cc1 (stereo unspecified),109,107
COc1cccc(-c2cc(C(F)(F)F)nc(NCc3ccc(F)cc3)n2)c1,100,102
Cc1ccccc1S(=O)(=O)Cc1ccc(C(=O)NC2CCC(C)CC2)o1 (stereo unspecified),102,102

A portion of the library, so the mix of outcomes need not match the whole.
